Screening results deposited in PubChem by National Center for Advancing Translational Sciences (NCATS).
SARS PLP yeast = inhibitors of SARS-CoV papain-like protease in yeast | S. cerevisiae expressing SARS-CoV PLpro, growth rescue; control for the full effect not named in the record | 330,000 compounds, 0.19% hits | Potency, µM (titrated, usually from 32.9 µM), without a hit: at the highest dose activity, positive = growth rescue; active means well fitted rising curve with a large enough effect; inconclusive means small, poorly fitted or top-dose-only effect; inactive means no such curve, though single readings can be large or run the other way; also: 0% is about no effect; nearly all actives have a fitted effect of over 55% in size; growth read by luminescence after 48 h
Cruzain inh Det = cruzain (T. cruzi) inhibition with detergent; P25779; purified cruzain, Z-FR-AMC fluorescence, 0.01% Triton; Potency, µM, without a hit: max response, negative = inhibition, hits mostly inhibitors; 200,000 compounds, 0.43% hits; AID 1478;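 also: plate controls were neutral wells for no effect and buffer without enzyme for full effect; nearly all actives have a fitted effect of over 40% in size; top concentration of the series not given in the record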
Target sequence (P25779 123-467 limits assumed): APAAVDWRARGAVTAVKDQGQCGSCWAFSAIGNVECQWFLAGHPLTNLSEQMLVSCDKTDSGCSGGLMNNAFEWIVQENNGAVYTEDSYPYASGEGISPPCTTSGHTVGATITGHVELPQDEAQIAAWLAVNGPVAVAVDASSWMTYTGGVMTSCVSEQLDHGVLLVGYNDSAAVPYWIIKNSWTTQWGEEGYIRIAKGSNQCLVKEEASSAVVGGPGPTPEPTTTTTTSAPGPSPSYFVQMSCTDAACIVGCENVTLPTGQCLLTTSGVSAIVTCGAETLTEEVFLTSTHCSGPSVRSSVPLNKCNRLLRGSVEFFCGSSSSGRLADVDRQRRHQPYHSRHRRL
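Sodium acetate buffer (100 mM, pH 5.5) containing 5 mM DTT and 0.01% Triton X-100 hosted 1.5 nM cruzain and test compound for 15 min at room temperature. Cleavage of 2 uM Z-FR-AMC was then tracked by fluorescence.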
Cruzain inh noDet = cruzain (T. cruzi) inhibition without detergent; 200,000 compounds, 2.3% hits; P25779; purified cruzain, Z-FR-AMC fluorescence, no detergent; AID 1476; Potency, µM, for inactives: max response, negative = inhibition, most hits filed as inhibitors;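 also: plate controls were enzyme without inhibitor for no effect and buffer without enzyme for full effect; nearly all actives have a fitted effect of over 40% in size; top concentration of the series not given in the record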
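Purified cruzain at 1.5 nM, pre-incubated 15 min with compound at room temperature in 100 mM sodium acetate pH 5.5, 5 mM DTT, 0.00005% Triton X-100. Reaction started with 2 uM Z-FR-AMC; AMC fluorescence increase over 60 s gives rate.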
LASV entry inh = Lassa virus entry inhibition; Lassa virus pseudotype entry inhibition, cell reporter; control for the full effect not named in the record; Potency, µM (titrated, usually from 37.9 µM), for the others: at the highest dose activity change, negative = inhibition, actives largely listed as inhibitors; 300,000 compounds, 1.2% hits; AID 540256; active means well fitted inhibition curve with a large enough effect; inconclusive means small, poorly fitted or top-dose-only effect, or effect the other way; inactive means flat fitted curve, though single readings scatter; tested in HEK293 cells; also: % is scaled to controls: 0 for no effect and ±100 for the full control effect; nearly all actives have a fitted effect of over 50% in size; luciferase read-out
Marburg entry inh = blocks Marburg virus binding to or entry into cells. AID 540276. Potency, µM (doses to about 37.8 µM), inactives show at the top dose activity change, negative = inhibition, hits mostly inhibitors. Marburg virus pseudotyped entry inhibition, cell reporter; control for the full effect not named in the record; about a third of the inactives were read at about 46 µM. 300,000 compounds, 1.8% hits; active = well fitted inhibition curve with a large enough effect; inconclusive = small, poorly fitted or top-dose-only effect, or effect the other way; inactive = flat fitted curve, though single readings scatter; tested in HEK293 cells; about a fifth of its hits are not listed in these tables; also: % is scaled to controls: 0 for no effect and ±100 for the full control effect; luciferase read-out
RE007 growth inh = less growth of the S. pombe RE007 Vpr strain; S. pombe RE007 Vpr strain, BacTiter-Glo ATP luminescence, 24 h; control for the full effect not named in the record; Potency, µM (top dose mostly 92.2 µM), inactives show top-dose activity change, negative = less growth; 360,000 compounds, 0.21% hits; AID 651644; active = well fitted falling curve with a large enough effect; inconclusive = small, poorly fitted or top-dose-only effect; inactive = no such curve, though single readings can be large or run the other way;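 also: % is scaled to controls: 0 for no effect and ±100 for the full control effect; nearly all actives have a fitted effect of over 50% in size; the assay follows cell death caused by Vpr and the record does not say whether a fall means rescue or toxicity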
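Fission yeast RE007 carrying one integrated HIV-1 vpr copy, seeded at OD 0.01 in PMG+AL medium with 23 nL pinned compound. Grown 24 h at 30 degrees; viability read by BacTiter-Glo luminescence after 5 min.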
NS1 function inh = blocks influenza NS1 protein function | S. cerevisiae slowed by influenza A NS1, growth recovery by OD600 | Potency, µM (highest dose often 46.1 µM), inactives show at the highest dose activity, positive = more growth | 270,000 compounds, 0.4% hits | AID 2326; active means well fitted rising curve with a large enough effect; inconclusive means small, poorly fitted or top-dose-only effect; inactive means no such curve, though single readings can be large or run the other way; also: nearly all actives have a fitted effect of over 50% in size
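S. cerevisiae expressing influenza A NS1, grown in glucose, washed, then diluted 1:100 into pH 6.0 -URA galactose medium with 23 nl compound. Growth recovery read as OD600; NS1-free strain serves as control.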
StopGo reporter = FMDV 2A StopGo reporter, luciferase signal | Potency, µM (top dose mostly 57.9 µM), without a hit: top-dose signal change, negative = less light | human cells with a luciferase reporter of 2A StopGo recoding; control for the full effect not named in the record | AID 1159524 | 410,000 compounds, 1.2% hits; active = well fitted falling curve with a large enough effect; inconclusive = small, poorly fitted or top-dose-only effect; inactive = no such curve, though single readings can be large or run the other way; tested in HEK293T cells; also: % is scaled to controls: 0 for no effect and ±100 for the full control effect; nearly all actives have a fitted effect of over 45% in size; luciferase light after 4 h
Starred values were filed as active, the others as inactive; ? = inconclusive; · = not tested or not shown; & = joins results of further samples; [ ] = remark or other dose. Unless noted, calls follow the shape of the dose curve; as a rule, active = well fitted curve in the direction sought with a large enough effect; inconclusive = small, poorly fitted or top-dose-only effect, or another doubt; inactive = no such curve, though single readings can be large; an effect the other way counts as inactive or inconclusive. Potency is read from the fitted curve at half-maximal effect.

The first five compounds (preview)
SMILES	SARS PLP yeast	Cruzain inh Det	Cruzain inh noDet	LASV entry inh	Marburg entry inh	RE007 growth inh	NS1 function inh	StopGo reporter
CC(C)(C)n1nnnc1C(c1cccnc1)N(Cc1ccccc1)Cc1cccs1 (stereo not given)	-23%	-6.0%	14%	?	?	-10%	-59%	-22%
CCOc1ccc(Nc2ccc([N+](=O)[O-])c3nonc23)cc1	-12%	·	·	·	·	?	-89%	0%
Cc1cnc(C(=O)N2CCCC(C(=O)c3ccc(Cl)cc3C)C2)cn1 (stereo not given)	-2%	·	·	·	·	6%	0%	?
CS(=O)(=O)c1ccc(Cl)c(C(=O)NCC2CCCCC2)c1	-2%	·	·	·	·	11%	-1%	-6%
CCCC(C(=O)NC(C)(C)CC)N(Cc1ccco1)C(=O)CNS(=O)(=O)c1ccccc1 (stereo not given)	0%	·	·	-14%[46.1 µM]	?	-9%	-1%	-15%

Results, repeating the preview:
SMILES	SARS PLP yeast	Cruzain inh Det	Cruzain inh noDet	LASV entry inh	Marburg entry inh	RE007 growth inh	NS1 function inh	StopGo reporter
CC(C)(C)n1nnnc1C(c1cccnc1)N(Cc1ccccc1)Cc1cccs1 (stereo not given)	-23%	-6.0%	14%	?	?	-10%	-59%	-22%
CCOc1ccc(Nc2ccc([N+](=O)[O-])c3nonc23)cc1	-12%	·	·	·	·	?	-89%	0%
Cc1cnc(C(=O)N2CCCC(C(=O)c3ccc(Cl)cc3C)C2)cn1 (stereo not given)	-2%	·	·	·	·	6%	0%	?
CS(=O)(=O)c1ccc(Cl)c(C(=O)NCC2CCCCC2)c1	-2%	·	·	·	·	11%	-1%	-6%
CCCC(C(=O)NC(C)(C)CC)N(Cc1ccco1)C(=O)CNS(=O)(=O)c1ccccc1 (stereo not given)	0%	·	·	-14%[46.1 µM]	?	-9%	-1%	-15%
Cc1[nH]c(C)c(S(=O)(=O)N(Cc2ccccc2)C(C)C)c1C(=O)N1CCCC1	5%	·	·	·	·	-5%	9%	-6%
O=C(CCCn1nnnc1CN1CCOCC1)N1CCC(c2ccccc2F)C1 (stereo not given)	-1%	·	·	·	·	-5%	-18%	4%
Cn1c(=O)n(C)c2cc(C(=O)c3ccccc3)ccc21	-9%	-0.3%	-2%	?	3%&3%	-6%	-78%	28%
O=C(Cc1cnc2ncnn2c1)N1CCc2c([nH]c3ccccc23)C1c1ccccn1 (stereo not given)	-1%	·	·	?	-1%[46.1 µM]	8%	-2%	4%
Cc1ccc(N2C(=O)C(O)(C(F)(F)F)C3=C2CC(C)(C)CC3=O)cc1C (stereo not given)	2%	-1.8%	9%	15%	-21%	4%	12%	31%[activator]
Cc1ccc(N2C(=O)CC(N3CCN(C4CCc5ccccc5C4)CC3)C2=O)cc1 (stereo not given)	-10%	3.4%	1%	13%	9%	-16%	-9%	-2%
Cc1cc(C)nc(Sc2c(C)n[nH]c2C)n1	-3%	0.9%	-9%	18%	0%	7%	-5%	11%
CN(C)/C=C/C(=O)C(Cl)(Cl)Cl	1%	·	·	2%[46.1 µM]	0%[46.1 µM]	46%	·	-7%
Cc1nn(-c2ccccc2)c(N2CCCC2)c1/C=N/NC(=O)c1cc(-c2ccccc2)nc2ccccc12	0%	-5.3%	4µM*	-29%	?	1%	?	?
O=C(CCCn1c(=O)[nH]c2ccccc2c1=O)NCc1ccccc1Cl	·	-4.6%	-3%	-2%[46.1 µM]	·	·	·	0%
COc1cc(C(=O)NC(=S)Nc2ccc([N+](=O)[O-])cc2C)cc(OC)c1OC	-22%	-4.2%	-8%	-2%	?	·	15%	0%
N#C/C(=C(/O)c1ccc([N+](=O)[O-])cc1)c1nnc2n1CCCCC2	-2%	·	·	13%	12%[46.1 µM]	15%	·	-12%
COc1ccc(/C(C)=N/OC/C(O)=C(\C#N)c2nc3ccccc3[nH]2)c(OC)c1	1%	-2.5%	-20%	·	·	0%	3%	-12%
Cc1cc(C)cc(NC(=O)CSCc2cc(=O)c3ccc(C)c(C)c3[nH]2)c1	·	0.8%	-3%	-9%[46.1 µM]	·	·	·	-15%
O=C(N[C@@H](Cc1ccccc1)C(=O)O)c1cccs1	5%	·	·	3%	2%[46.1 µM]	19%	6%	11%
COc1ccccc1N1C(=O)C2ON(c3ccccc3)C(c3ccc(N(C)C)cc3)C2C1=O (stereo not given)	-63%	-5.1%	6%	·	-4%	·	26%	·
O=C(NCc1cccc(F)c1)C1=Cc2cc(Br)ccc2OC1	·	-8.2%	-6%	-23%[46.1 µM]	·	·	·	17%
O=C(c1ccc(CNS(=O)(=O)c2ccccc2)cc1)N1CCC2(CC1)OCCO2	4%	1.1%	-7%	-3%	-15%[46.1 µM]	8%	-10%	3%
CC(C)OCCCNC(=O)Cn1ccc2cc(S(=O)(=O)N3CCCCCC3)ccc21	-2%	-13%	17%	3%[46.1 µM]	·	15%	-12%	10%&25%
Cc1nc(/N=C(\N)Nc2ccccc2)nc2ccccc12	-4%	-6.3%	10%	·	0%	·	-9%	·
CCc1ccc(NP(=O)(Oc2ccccc2F)Oc2ccccc2F)cc1	-8%	·	·	-26%	-5%[46.1 µM]	18%	·	38%[activator]
CCOc1ccc(-n2cc(C(=O)Nc3cccc(OC)c3)c3cc(OC)c(OC)cc3c2=O)cc1	9%	-3.1%	?	0%	-7%	5%	19%	-15%
O=C(O)c1ccccc1C1=Nc2ccc(O)cc2Oc2cc(O)ccc21	10%	-4.9%	-2%	0%	-7%&1%	2%	-4%	-4%
CCCCCCCCCC(=O)NNC(=O)c1c(O)c2ccccc2n(CC)c1=O	1%	·	·	-19%	0%[46.1 µM]	18%	4%	-22%
COc1ccc(OC)c(NC(=O)CN(c2ccccc2OC)S(=O)(=O)c2ccc(C)cc2)c1	·	-5.3%	-20%	?	-23%[46.1 µM]	·	·	-23%
COC(C(=O)Nc1cccc(F)c1)c1ccccc1 (stereo not given)	2%	9.2%	-4%	3%	3%	-14%	3%	12%
Cc1ccc2nc(-c3ccc(NC(=O)c4ccco4)cc3)[nH]c2c1	-5%	25µM*	-1%	?	?	4%	-12%	0%
CCCOc1ccc(N2CC(C(=O)NC(C)C)CC2=O)cc1 (stereo not given)	15%	8.3%	5%	0%	-2%	-4%	0%	-9%
O=C1Nc2cccnc2N(C(=O)CCl)c2ccccc21	1%	·	·	?	?	-15%	-4%	?
Cn1nnnc1SCC(=O)NCc1cc([N+](=O)[O-])ccc1O	-3%	·	·	7%[46.1 µM]	3%[46.1 µM]	6%	·	-11%
Cc1c(Cl)cnc(NC(=O)COC(=O)c2ccc(S(=O)(=O)NCc3ccco3)cc2)c1Cl	-17%	-11%	-13%	14%	15%	6%	16%	-13%
CCNC(=O)CC1C(=O)N(c2ccc(F)cc2)C(=S)N1CCc1ccncc1 (stereo not given)	-6%	·	·	-3%[46.1 µM]	?	5%	·	-10%
O=C(Cc1coc2ccc3ccccc3c12)Nc1nccs1	8%	-6.4%	-21%	?	-27%	19%	4%	-13%
COCCNS(=O)(=O)c1cc(Br)ccc1OC	8%	3.8%	5%	-11%	3%	-7%	4%	43%
CC1CCN(C(c2ccc(N(C)C)cc2)c2nnnn2C(C)(C)C)CC1 (stereo not given)	1%	-2.1%	-3%	17%	-2%	-2%	?	17%
CCCCCCCSc1cc(OC)c(CCN(C)C)cc1OC	-21%	0.0%	25%	?	?	-10%	10%	-17%
Cc1ccc(CSCCNC(=O)c2ccc(C)cc2)cc1	-2%	·	·	?	?	9%	-39%	-3%
CNC(=O)COc1cccc(C(=O)NCc2ccccc2)c1	7%	0.1%	7%	?	-11%	4%	-1%	11%
CC/C(=N\O)C(C)(C)/[N+]([O-])=C/c1ccc(Br)cc1	2%	-1.2%	-5%	-13%[14.3 µM]	-9%	4%	4%	23%
OCC[C@@H]1C[C@H](O)[C@@H](O)[C@]2(Cc3ccccc3CO2)O1	-8%	·	·	·	·	-3%	-3%	8%
CCOC(=O)Cn1nc(C)c([N+](=O)[O-])c1C	0%	·	·	25%[46.1 µM]	-13%[46.1 µM]	6%	·	2%
CCCc1cc(=O)[nH]c(Nc2cc(C)ccc2OC)n1	·	-7.2%	-14%	-14%[46.1 µM]	?	·	·	-6%
CCn1cc2nc(SCC(=O)Nc3ccccc3F)n(Cc3ccccc3)c(=O)c2n1	?	·	·	·	·	13%	0%	-8%
COCCNC(=O)C(c1cccc(OC)c1)N(Cc1cccs1)C(=O)Cn1nnc2ccccc21 (stereo not given)	8%	1.6%	9%	4%	22%[46.1 µM]	11%	-6%	11%
O=C1c2ccccc2C(=O)N1CCc1csc(-c2cccc(F)c2)n1	-8%	-1.2%	-8%	18%	-7%	0%	-16%	-8%
COc1ccc(C(=O)Nc2ccc(S(=O)(=O)Nc3onc(C)c3C)cc2)c(OC)c1	-7%	·	·	34%	?	1%	·	25%
Cc1ccccc1COc1ccc2oc(C)c(C(=O)O)c2c1	1%	·	·	4%	-1%	11%	4%	-9%
CCCn1cc(CN2CCCC(C(=O)c3cccc(OC(C)C)c3)C2)c(C)n1 (stereo not given)	-1%	·	·	·	·	1%	3%	0%
COc1ccc(C(=O)NCc2ccc3c(c2)cc(C)n3C)cc1OC	-1%	·	·	0%	0%	0%	·	-20%
COc1ccccc1Nc1nn2c(=O)c3ccc(C(=O)NCCCOC(C)C)cc3nc2s1	·	-3.0%	3%	?	·	·	·	?
O=C(Nc1ccccc1N1CCOCC1)c1cc(Br)c(Br)s1	-3%	·	·	27%	?	6%	·	-20%

Whole records, quoted from the list.
COc1ccccc1Nc1nn2c(=O)c3ccc(C(=O)NCCCOC(C)C)cc3nc2s1 reads SARS PLP yeast = ·; Cruzain inh Det = -3.0%; Cruzain inh noDet = 3%; LASV entry inh = ?; Marburg entry inh = ·; RE007 growth inh = ·; NS1 function inh = ·; StopGo reporter = ?
Cc1ccccc1COc1ccc2oc(C)c(C(=O)O)c2c1 reads SARS PLP yeast = 1%; Cruzain inh Det = ·; Cruzain inh noDet = ·; LASV entry inh = 4%; Marburg entry inh = -1%; RE007 growth inh = 11%; NS1 function inh = 4%; StopGo reporter = -9%
